# Compound activity (PubChem BioAssay)
# HNF4A DNA FP = change in binding of human HNF4A to DNA, primary screen, biochemical, fluorescence polarization, FITC-DNA; 1 h; Hepatocyte nuclear factor 4-alpha (Homo sapiens), P41235; activity change, % at 10 µM; hit rate 0.3% among 360,000; in the data active = activity change above about 30%, passing the limit was not always enough;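 note: controls were the assay level and a saturating level of protein; the project sought stronger binding though the title names inhibitors; some compounds called inactive have numbers as strong as hits; positive values seem to mean higher polarization but the record does not say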
# Target sequence (P41235 whole entry, looked up): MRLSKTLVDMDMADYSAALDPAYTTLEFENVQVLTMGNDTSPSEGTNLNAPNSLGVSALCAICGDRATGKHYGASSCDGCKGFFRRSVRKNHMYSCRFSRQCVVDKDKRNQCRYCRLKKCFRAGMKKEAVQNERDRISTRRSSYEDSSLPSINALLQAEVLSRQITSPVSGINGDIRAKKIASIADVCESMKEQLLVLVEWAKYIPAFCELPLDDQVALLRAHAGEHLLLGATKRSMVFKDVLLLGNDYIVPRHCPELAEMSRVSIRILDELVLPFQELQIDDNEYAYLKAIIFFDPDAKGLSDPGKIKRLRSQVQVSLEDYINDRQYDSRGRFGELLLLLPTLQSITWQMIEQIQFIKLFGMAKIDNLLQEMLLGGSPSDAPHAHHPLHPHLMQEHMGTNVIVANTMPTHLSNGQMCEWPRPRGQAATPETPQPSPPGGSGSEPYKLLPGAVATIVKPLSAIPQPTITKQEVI
# MLL AF4-AF9 inh = inhibitors of AF4 peptide binding to AF9, primary screen, biochemical, AlphaScreen, biotin-AF4 peptide, FLAG-AF9, single point; Protein AF-9 (Homo sapiens), P42568; inhibition, % at 10 µM; hit rate 0.47% among 350,000; AID 651704, 2012;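 active = every replicate reaching a set inhibition limit, whatever the replicate mean, cut at about 25% in these data; inconclusive = mean inhibition reaches that limit but some replicates miss it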;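 note: 0% = plate neutral control median and 100% = total signal loss; the record names both 10 and 1 µM as test concentration; the first replicate is given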
# FGF22 binding = binders of human FGF22 protein, primary screen, FGF22 synaptogenesis inhibitor project, biophysical, thermal shift, single point | Fibroblast growth factor 22 (Homo sapiens), Q9HCT0 | recombinant FGF22 thermal shift, SYPRO orange fluorescence; percent of sucrose octasulfate shift, DMSO zero | calls only at 9.99 µM | hit rate 1.5% among 340,000 | AID 651658, 2012;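 active = melting point raised past a set limit in the mean and every replicate; inconclusive = no clear call; three in four hits are not shown here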
# Target sequence (Q9HCT0 whole entry, looked up): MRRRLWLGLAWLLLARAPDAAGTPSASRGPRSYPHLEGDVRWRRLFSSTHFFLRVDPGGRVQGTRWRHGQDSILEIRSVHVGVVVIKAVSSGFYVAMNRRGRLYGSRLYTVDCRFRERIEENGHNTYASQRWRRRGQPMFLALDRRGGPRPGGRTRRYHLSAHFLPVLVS
# Vif A3G = inhibitors of Vif binding to APOBEC3G peptide, primary screen, biochemical, TR-FRET, GST-Vif 1-94, biotin-A3G peptide, dose response retest (AID 1117319); hit rate 0.57% among 260,000; Virion infectivity factor (Human immunodeficiency virus type 1 group M subtype B (isolate …; inhibition, %; hits with a dose series show IC50 in µM; TR-FRET GST-Vif / biotin-A3G peptide binding; higher % means a stronger effect; test concentration not given here; strong numbers were not always called active;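 active = above the screen mean plus three standard deviations and confirmed in dose response; inconclusive = results disagree or hit not tested in dose response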;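 note: Vif residues 1-94 fused to GST binding biotinylated APOBEC3G peptide 110-148; 0% = full assay without inhibitor and 100% = GST in place of GST-Vif; retest series ran down from 100 µM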
# rRNA inh HTS = reduced GFP signal of wild-type E. coli, primary screen, bacterial rRNA inhibitor project, GFP/RFP fluorescence, OD600, single point; E. coli WT GFP vs humanized-ribosome RFP mutants, 24 h; stronger effect = lower value; DMSO median 0, no signal -100; GFP signal change (wild-type ribosome), % (test concentration not listed); hit rate 1.6% among 350,000; AID 720706, 2013;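 active = significant combined selectivity score with lowered wild-type GFP, culture density cut under 30%, mutant RFP and density less affected; inactive = any of these conditions unmet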; note: one replicate is shown; some compounds called inactive have numbers as strong as hits
# ALR inh = inhibitors of human ALR sulfhydryl oxidase, primary screen, biochemical, H2O2 detection, HRP-luminol luminescence, single point; FAD-linked sulfhydryl oxidase ALR (Homo sapiens), P55789; purified ALR, DTT oxidation; inhibition, % (no concentration beside the values); hit rate 3.8% among 290,000;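 active = mean and each replicate at 75% or more; inconclusive = only one of the two met; inactive = neither met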;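 note: stock transfer was 7.5 nL into about 7.5 µL; 0% = neutral wells and 100% = wells with inactivated enzyme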
# Target sequence (P55789 whole entry, looked up): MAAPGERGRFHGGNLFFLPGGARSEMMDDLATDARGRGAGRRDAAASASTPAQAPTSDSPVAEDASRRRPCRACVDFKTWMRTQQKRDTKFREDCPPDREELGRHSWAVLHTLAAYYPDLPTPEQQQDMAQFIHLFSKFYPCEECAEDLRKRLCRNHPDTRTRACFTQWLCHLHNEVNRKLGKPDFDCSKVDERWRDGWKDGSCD
# Ecoli growth = E. coli growth inhibition, primary screen, OD600; Escherichia coli growth, 23 h; stronger effect = lower value; AID 1053175, 2014; hit rate 0.21% among 330,000; OD600 absorbance (test concentration not listed);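 active = OD600 absorbance below the run mean of sample wells minus 3.6 SD, in any replicate, cut at about 0.56 in these data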;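 note: stock transfer was 300 nL into about 60 µL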
# rRNA inh HTS OD600 = second read-out of rRNA inh HTS, no call of its own (marks repeat the call); OD600 change, %; measured here: OD600 growth;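 optical density of the mix in the first replicate; 0 = DMSO median and -100 = no signal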
# rRNA inh HTS RFP = second read-out of rRNA inh HTS, no call of its own (marks repeat the call); RFP signal change, %; measured here: RFP humanized mutant strains;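 first replicate; 0 = DMSO median and -100 = no signal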
# Numbers without * were called inactive; i = inactive; ? = inconclusive; . = no result given; & = joins results of further samples.
SMILES,HNF4A DNA FP,MLL AF4-AF9 inh,FGF22 binding,Vif A3G,rRNA inh HTS,rRNA inh HTS OD600,rRNA inh HTS RFP,ALR inh,Ecoli growth
CC1=CC(C)(C)N(C(=O)CCl)c2ccccc21,4.0,-2.5,.,-1%,8,12,3.1,-4,0.69
CC(C)(C)c1cc(C(=O)NN)n(Cc2ccc(F)cc2)n1,1.6,-2.2,i,.,-4,-18,-3.0,-3,0.67
CCCCC(CC)C(=O)Nc1ccccc1C(=O)NC(C)C (stereo not drawn),-0.4,.,.,6%,-3,11,-3.3,-5,0.68
C[C@H](CO)N1C[C@H](C)[C@H](CN(C)Cc2cccnc2)Oc2ncc(C3=CCCC3)cc2C1=O,.,-3.8,i,.,3,1,-1.1,.,.
COc1cccc(CNS(=O)(=O)c2cc(Br)ccc2Br)c1,-1.3,0.7,i,-4%,-48,-80,-17,.,.
O=C(O)C1Sc2[nH]c(=O)sc2C2c3cc(Br)ccc3OC(=O)C12 (stereo not drawn),1.0,2.3,i,17%,7,-3,26,.,0.63
COC(=O)c1onc(C(=O)c2ccccc2)c1C(=O)OC,-1.1,.,.,-6%,.,.,.,0,0.68
CC1(OC(=O)C2CCCC2)C(=O)C=C2C=C(c3ccsc3)N(C3CCCC3)C=C2C1=O (stereo not drawn),0.6,7.4,i,.,18,24,11,-10,0.66
C=CCNC(=O)C1=NOC(CNC(=O)c2c(-c3ccccc3Cl)noc2C)C1 (stereo not drawn),1.3,.,.,0%,.,.,.,1,0.71
Cn1c(/C(C#N)=C/Nc2ccccn2)nc2ccccc21,-4.3,.,.,9%,.,.,.,-1,.
COc1ccc(NC(=O)C2CC(=O)N(Cc3ccco3)C2)cc1Cl (stereo not drawn),1.4,-1.9,i,.,4,6,-0.2,0,0.72
Cc1ccc2nc(/N=C(\N)NC(=O)N3c4ccccc4Sc4ccccc43)nc(C)c2c1,14,0.9,i,4%,.,.,.,24,.
Cc1cc[n+](-c2[nH]c(=O)sc2/C=N/N=C(\[O-])CCn2c3ccccc3c3ccccc32)cc1,-2.5,-0.6,i,?,.,.,.,-9,.
O=C(COC(=O)C1CC1)NCc1ccc(Cl)cc1Cl,0.6,-0.8,i,.,1,5,-0.6,-1,0.68
CCc1ccccc1NC(=O)CSc1nc2ccccc2n1CC(=O)N1CCCC1,2.1,.,.,6%,.,.,.,0,0.73
C[C@@H]1CN([C@H](C)CO)C(=O)c2cc(NS(=O)(=O)c3cn(C)cn3)ccc2O[C@H]1CN(C)Cc1ccc(C(=O)O)cc1,.,-0.9,i,.,4,10,-0.5,.,.
CC1CN(CCCOc2ccccc2-c2ccccc2)CC(C)O1 (stereo not drawn),-1.0,5.8,i,6%,-46,-52,-18,.,0.62
C[C@H](CO)N1C[C@H](C)[C@@H](CN(C)Cc2ccc(Oc3ccccc3)cc2)Oc2ccc(NS(C)(=O)=O)cc2C1=O,.,6.0,i,.,-3,-2,0.7,.,.
O=C(CCc1ccc(CCC(=O)c2cccs2)s1)c1cccs1,3.5,.,.,13%,.,.,.,92*,0.7
COc1ccc(CNc2nc(NCc3ccc(OC)c(OC)c3)n(C(=O)c3cccs3)n2)cc1OC,0.5,.,.,13%,.,.,.,-10,0.7
CCN(CC)C(=O)C(=O)N/N=C/c1ccc(Cl)cc1Cl,6.0,-4.8,.,0%,2,0,-1.4,-6,.
COC(=O)c1[nH]c2cc(OC)ccc2c1NC(=O)CCN1CCN(Cc2ccc3c(c2)OCO3)CC1,7.1,.,.,1%&-8%,.,.,.,.,0.64
C[C@H]1CN([C@@H](C)CO)S(=O)(=O)c2ccc(C#CC3CC3)cc2O[C@H]1CN(C)C(=O)Cc1ccncc1,.,7.0,i,.,-4,-2,1.7,.,.
Cc1noc(C)c1S(=O)(=O)Nc1ccc2c(c1)C(=O)N([C@@H](C)CO)C[C@H](C)[C@H](CN(C)C(=O)Nc1cccc3ccccc13)OCCCC[C@H](C)O2,.,-2.5,i,.,3,-6,0.0,.,.
CCN(C(=O)CCN1C(=O)c2ccccc2C1=O)C1CCCCC1,-1.4,.,.,9%,.,.,.,-3,0.68
C[C@@H]1CN([C@@H](C)CO)C(=O)c2cc(NC(=O)Nc3ccc4c(c3)OCO4)ccc2O[C@@H](C)CCCCO[C@H]1CN(C)Cc1ccncc1,.,7.2,i,.,-5,-2,5.2,.,.
O=[N+]([O-])c1cc(C=NN2CCCCCC2)ccc1Cl,1.0,19,i,1%,2,-16,-12,.,0.65
Cc1ccc2c(=O)cc(C(=O)NC3CCS(=O)(=O)C3)oc2c1C (stereo not drawn),5.3,-0.1,i,-6%,-27,-40,-8.7,98*,0.7
CC(C)NC(=O)Nc1ccc2c(c1)C(=O)N([C@H](C)CO)C[C@H](C)[C@@H](CN(C)C(=O)Nc1ccc(C(F)(F)F)cc1)OCCCC[C@@H](C)O2,.,-2.1,i,.,-2,-1,-1.1,.,.
COC(=O)c1ccc(Oc2c(F)c(F)nc(N3CCOCC3)c2F)cc1,3.1,-1.7,i,2%,-34,-30,-6.2,-1,0.68
COc1ccc(S(=O)(=O)N(C)C[C@H]2Oc3ccc(NC(=O)Cc4cn(C)c5ccccc45)cc3CC(=O)N([C@H](C)CO)C[C@H]2C)cc1,.,1.8,i,.,-1,8,5.2,.,.
COc1cc2c(cc1OC)-c1cc(Nc3ccc(C(=O)O)cc3)nc(=O)n1CC2,-3.3,-2.5,i,2%,1,8,-2.1,7,0.65
O=C(CSc1ccc(-c2ccccc2)nn1)NC1CCCCC1,1.3,-6.7,i,.,6,10,-1.6,-6,0.67
Cc1ccccc1NC(=O)COC(=O)C1C2CC3OC(=O)C1C3C2 (stereo not drawn),1.4,3.2,i,.,8,7,2.3,-1,0.69
CCC(C)(C(=O)NC1CCCCC1)N(CC1CCCO1)C(=O)Cc1cccs1 (stereo not drawn),-1.4,-2.4,i,-1%,5,5,2.4,-5,0.7
CCNS(=O)(=O)c1ccc(NC(=O)c2cccnc2)cc1,-2.6,.,.,1%,.,.,.,-3,0.68

# Molecules from the list above that contain an aryl thioether with sulfur outside any ring, in the order listed:
SMILES,HNF4A DNA FP,MLL AF4-AF9 inh,FGF22 binding,Vif A3G,rRNA inh HTS,rRNA inh HTS OD600,rRNA inh HTS RFP,ALR inh,Ecoli growth
CCc1ccccc1NC(=O)CSc1nc2ccccc2n1CC(=O)N1CCCC1,2.1,.,.,6%,.,.,.,0,0.73
O=C(CSc1ccc(-c2ccccc2)nn1)NC1CCCCC1,1.3,-6.7,i,.,6,10,-1.6,-6,0.67

# Next section.
SMILES,HNF4A DNA FP,MLL AF4-AF9 inh,FGF22 binding,Vif A3G,rRNA inh HTS,rRNA inh HTS OD600,rRNA inh HTS RFP,ALR inh,Ecoli growth
CC(C)NC(=O)Nc1ccc2c(c1)C(=O)N([C@@H](C)CO)C[C@@H](C)[C@@H](CN(C)Cc1ccc(C(F)(F)F)cc1)OCCCC[C@H](C)O2,.,3.4,i,.,-2,0,0.4,.,.
Cc1cc(C)c(C)c(S(=O)(=O)NC(C(=O)NCCc2ccco2)C(C)C)c1C (stereo not drawn),-5.5,3.4,i,-2%,.,.,.,1,0.63
COc1ccc(N2CCN(C(CNS(C)(=O)=O)c3ccco3)CC2)cc1 (stereo not drawn),-1.2,1.2,i,19%,7,6,-5.4,92*,0.66
COCCNC(=O)COc1ccc(C)cc1C,0.8,.,.,-5%,.,.,.,0,0.8
CCc1noc(C)c1C(=O)Nc1cc(S(=O)(=O)N2CCOCC2)ccc1N1CCN(CC)CC1,-2.2,-4.2,i,2%,0,1,-0.7,-15,0.7
O=C(CNC(=O)N1CC(=O)Nc2ccccc21)NCc1ccc(F)cc1,-2.7,-1.1,i,4%,-4,4,-6.3,.,.
Cc1ccc(C)c(Cn2nnc3c(=O)[nH]c(C4CCN(S(=O)(=O)c5ccc(S(=O)(=O)NC6CC6)cc5)CC4)nc32)c1,-0.3,2.7,i,-11%,2,-5,1.3,-12,0.73
CC1(C(=O)Nc2cnc3ccccc3c2)CCN1CCOc1ccccc1 (stereo not drawn),0.8,-4.5,i,.,-40,-67,-9.8,.,.
CC(C)(C)[C@H]1C=C(C(=O)N2CCN(Cc3ccccc3)CC2)O[C@@H](OCCCCO)C1,5.1,.,i,.,-4,7,9.8,-6,.
CCCCNC(=O)CSc1nc(Cc2ccccc2)nc2ccccc12,-3.2,-5.1,i,.,2,-8,0.9,?,0.65
O=C(Nc1ccc(C(F)(F)F)cc1)c1cc(-c2cccnc2)nc2ccc(Br)cc12,2.0,.,.,-27%,.,.,.,-8,0.8
CCN1CC(CN(C)Cc2nc(-c3ccc(C(F)(F)F)cc3)no2)CC1=O (stereo not drawn),1.0,-48,i,4%,5,10,8.0,0,0.68
CN(C)c1ccc(C(=N)Cc2ccc3ccccc3n2)cc1,26,0.3,i,-2%,2,6,23,.,.
Cc1cccc(C)c1OCC(=O)NCC1COc2ccccc2O1 (stereo not drawn),-3.5,-0.5,i,0%,-7,-38,-5.5,-4,0.67
Cc1ccc(C(=O)Nc2cc(C)c(OCC(=O)N3CCOCC3)c(C)c2)cc1,0.6,.,.,4%,.,.,.,-5,0.7
O=C(CN1CCC(NC(=O)Nc2ccccc2)CC1)Nc1ccccc1F,0.2,0.2,i,.,-4,-3,-0.3,18,0.7

# Ordered by count of non-hydrogen atoms (falling): 11 of the compounds above.
SMILES,HNF4A DNA FP,MLL AF4-AF9 inh,FGF22 binding,Vif A3G,rRNA inh HTS,rRNA inh HTS OD600,rRNA inh HTS RFP,ALR inh,Ecoli growth
COc1ccc(S(=O)(=O)N(C)C[C@H]2Oc3ccc(NC(=O)Cc4cn(C)c5ccccc45)cc3CC(=O)N([C@H](C)CO)C[C@H]2C)cc1,.,1.8,i,.,-1,8,5.2,.,.
CC(C)NC(=O)Nc1ccc2c(c1)C(=O)N([C@@H](C)CO)C[C@@H](C)[C@@H](CN(C)Cc1ccc(C(F)(F)F)cc1)OCCCC[C@H](C)O2,.,3.4,i,.,-2,0,0.4,.,.
COC(=O)c1[nH]c2cc(OC)ccc2c1NC(=O)CCN1CCN(Cc2ccc3c(c2)OCO3)CC1,7.1,.,.,1%&-8%,.,.,.,.,0.64
Cc1cc[n+](-c2[nH]c(=O)sc2/C=N/N=C(\[O-])CCn2c3ccccc3c3ccccc32)cc1,-2.5,-0.6,i,?,.,.,.,-9,.
O=C(Nc1ccc(C(F)(F)F)cc1)c1cc(-c2cccnc2)nc2ccc(Br)cc12,2.0,.,.,-27%,.,.,.,-8,0.8
Cc1ccc(C(=O)Nc2cc(C)c(OCC(=O)N3CCOCC3)c(C)c2)cc1,0.6,.,.,4%,.,.,.,-5,0.7
CCN1CC(CN(C)Cc2nc(-c3ccc(C(F)(F)F)cc3)no2)CC1=O (stereo not drawn),1.0,-48,i,4%,5,10,8.0,0,0.68
O=C(CNC(=O)N1CC(=O)Nc2ccccc21)NCc1ccc(F)cc1,-2.7,-1.1,i,4%,-4,4,-6.3,.,.
COC(=O)c1onc(C(=O)c2ccccc2)c1C(=O)OC,-1.1,.,.,-6%,.,.,.,0,0.68
O=[N+]([O-])c1cc(C=NN2CCCCCC2)ccc1Cl,1.0,19,i,1%,2,-16,-12,.,0.65
COCCNC(=O)COc1ccc(C)cc1C,0.8,.,.,-5%,.,.,.,0,0.8

# This is a subset. The share of hits here may be higher or lower than overall.
